Mtb bLac sens: beta-lactam sensitization of Mtb H37Rv, H37Rv; M. tuberculosis H37Rv growth with meropenem, percent inhibition; hits of this screen are not shown here; inhibition, % at 25 µM; hit rate 0.27% among 330,000;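 active = about 74% or more and at least 40 points above the plate without the antibiotic, then above 30% in a dose series; inconclusive = first-round hits that could not be retested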;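 also: growth measured after seven days incubation then overnight dye step; 0% = bacteria only wells and 100% = bacteria with antibiotic; twin plates without the antibiotic show which effects depend on it; some results filed as inactive read as strong as hits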
RecA intein inh: Mtb RecA intein splicing inhibitors, primary screen, biochemical, fluorescence, HTS | inhibition, %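 (about 9 µM by stock and volumes)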 | Protein RecA (Mycobacterium tuberculosis (strain ATCC 25618 / H37Rv)), P9WHJ3 | hit rate 0.75% among 290,000 | cell-free RecA intein splicing; in the data active = inhibition above about 30%; inconclusive = no clear call, values can overlap the other calls;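 also: 0% = vehicle wells and 100% = reference inhibitor control wells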
Target sequence (P9WHJ3 whole entry, looked up): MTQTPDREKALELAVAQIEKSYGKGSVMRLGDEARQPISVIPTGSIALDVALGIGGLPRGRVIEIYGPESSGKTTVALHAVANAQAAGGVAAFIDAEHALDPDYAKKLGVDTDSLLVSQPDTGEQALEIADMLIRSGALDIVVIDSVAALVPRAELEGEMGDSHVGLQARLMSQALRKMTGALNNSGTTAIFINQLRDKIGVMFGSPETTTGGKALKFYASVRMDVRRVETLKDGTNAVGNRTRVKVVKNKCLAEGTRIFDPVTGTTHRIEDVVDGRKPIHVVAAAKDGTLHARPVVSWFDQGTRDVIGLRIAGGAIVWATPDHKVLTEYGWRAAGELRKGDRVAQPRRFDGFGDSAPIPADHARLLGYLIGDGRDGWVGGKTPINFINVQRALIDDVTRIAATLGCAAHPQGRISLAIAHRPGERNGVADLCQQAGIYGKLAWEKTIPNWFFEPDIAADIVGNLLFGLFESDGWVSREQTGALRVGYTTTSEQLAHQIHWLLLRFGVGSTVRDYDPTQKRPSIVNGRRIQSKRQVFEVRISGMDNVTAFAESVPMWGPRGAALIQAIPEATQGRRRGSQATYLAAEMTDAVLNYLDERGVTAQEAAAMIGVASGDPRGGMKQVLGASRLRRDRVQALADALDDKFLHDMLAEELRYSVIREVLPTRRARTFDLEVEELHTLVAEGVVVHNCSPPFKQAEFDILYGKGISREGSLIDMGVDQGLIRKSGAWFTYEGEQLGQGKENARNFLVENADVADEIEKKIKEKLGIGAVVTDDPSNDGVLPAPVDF
Mtb H37Rv: M. tuberculosis H37Rv growth inhibitors, H37Rv strain (AID 1626). M. tuberculosis H37Rv growth inhibition; higher % means a stronger effect. inhibition, % at 10 µM, or IC50 in µM where a hit was titrated. hit rate 0.95% among 220,000;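 active = confirmed in a dose series; inconclusive = inhibition above 80% but not taken into the dose series; inactive = below 80% or under 30% at every dose of the series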;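 also: bacteria incubated seven days before Alamar blue readout; 0% = bacteria only wells and 100% = bacteria with antibiotic wells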
Arbovirus inh: antivirals against arbovirus infection, primary screen, cell-based, full library, 10K replicate subset | arbovirus infection cell-based antiviral screen | hit rate 0.37% among 200,000 | inhibition, % at 10 µM | AID 1251, 2008;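 active = inhibition from about 30%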;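 also: bluetongue infection of BSR cells; cell survival read as ATP light after 72 h; 0% = infected wells without compound and 100% = uninfected wells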
YopH inh: YopH tyrosine phosphatase inhibitors, primary screen, biochemical, fluorescence Ex485/Em525 | YopH tyrosine phosphatase [Yersinia enterocolitica] | inhibition, %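 (about 10 µM by stock and volumes)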 | hit rate 0.16% among 140,000;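 active = inhibition of 50% or more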;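 also: controls were vehicle for no effect and minimum signal wells for full effect; inactives centre near -20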
Arbovirus inh repeat: recorded beside Arbovirus inh, whose call it bears; inhibition, %; measured here: 10K subset replicate screen; many hits read low in the repeat;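 first of two repeat runs on a subset; 0% = infected and 100% = uninfected wells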
An asterisk follows results filed as active; ? = inconclusive; . = no result given. Only part of the results is shown (hit frequency here may not be typical).

SMILES	Mtb bLac sens	RecA intein inh	Mtb H37Rv	Arbovirus inh	YopH inh	others
CCOc1ccc(OCCn2ccnc2)cc1	-3	-0.3	1%	5	-22
N#Cc1c(-c2ccccc2)cc(-c2ccccc2)nc1SCCC(=O)O	-1	5.0	.	.	.
O=C(COc1ccccc1Cl)Nc1ccc(N2CCN(C(=O)c3ccccc3)CC2)cc1	8	5.9	.	.	.
Cc1cc(S(=O)(=O)NC2CCCCC2)ccc1-n1cnnn1	5	-1.1	-1%	0	.
C#C[C@]1(O)CCC2C3CCC4=Cc5oncc5CC4(C)C3CCC21C (some centres not stated)	-6	10.0	4%	.	.
Cc1cc(=O)[nH]c(N/N=C/C(C)c2ccccc2)n1 (configuration not stated)	0	-3.0	10%	.	.
COc1ccc(C2SCC(=O)N2Cc2ccccc2)cc1 (configuration not stated)	13	2.6	.	.	.
Cc1ccc(C)c(NC(=O)C(NCC(C)(C)N2CCOCC2)c2ccccc2)c1 (configuration not stated)	5	1.8	5%	-3	.
CCOC(=O)C1=NN(C(C)=O)C2(CC(=O)N(c3ccc(C)c(C)c3)C2=O)C1 (configuration not stated)	-8	-7.5	-11%	-11	-13
COc1cc(OC)c(OC)cc1CN(C)C(c1ccccc1)c1nnnn1-c1ccccc1C (configuration not stated)	17	9.0	4%	-8	-34
O=C(CCc1nnc(CCCCc2ccccc2)o1)NCCn1cccn1	-1	-2.7	12%	7	.
CCNc1nc(=S)nc(NC(C)C)[nH]1	2	0.7	-9%	-5	-24
O=S(=O)(N/N=C\C=C\c1ccccc1)c1ccccc1	12	2.0	-4%	.	-38
CC(=O)c1cccc(NC(=O)COc2ccc(S(=O)(=O)N3CCCCC3)cc2)c1	2	-1.7	-13%	3	-116
CSc1ccccc1-n1nnnc1SCc1ccccc1	-11	10	-8%	-5	-5
Cc1cccc(N(CC(=O)NC2CCCC2)C(=O)c2c(C)noc2C)c1	4	1.3	-18%	-2	-5
c1ccc(CCn2c3ccccc3c3nnc(SCc4ccc5nonc5c4)nc32)cc1	1	8.7	11%	25	-3
O=C(CCC(=O)Nc1ccccc1Cl)N/N=C1\CCCc2ccccc21	-3	0.2	8%	-1	-15
O=[N+]([O-])c1cccc(S(=O)(=O)N/N=C/c2ccc(O)cc2)c1	-10	-3.2	1%	-4	.
CCN1CCN(C(c2cccs2)C(C)NC(=O)c2ccccc2F)CC1 (configuration not stated)	-8	2.0	-8%	6	-11
COC(=O)[C@@H]1[C@@H](C)N(Cc2ccccc2)C(=O)N[C@H]1c1ccccc1	-4	1.6	-11%	.	.
Clc1cccc(-c2nc3nc4ccccc4nc3n2Cc2ccco2)c1	-1	7.3	1%	6	-40
Cc1ccc(OCCN2CCN(c3nc(NCc4ccco4)c4ccccc4n3)CC2)cc1	95	13	?	-36	-15
O=C(NC1C2CC3CC(C2)CC1C3)c1ccc(Br)o1 (configuration not stated)	2	-3.2	.	.	.
CN(CCc1ccccn1)C(=O)CCC1CCCN(C(=O)c2n[nH]c3c2CCCC3)C1 (configuration not stated)	-15	-2.2	-8%	5	.
O=C(Nc1cnccn1)c1ccncc1	1	-0.4	-4%	7	-28
COc1ccc(-n2nnnc2SCc2nc(N)nc(N3CCOCC3)n2)cc1	-1	-0.3	-5%	-1	-42
CCCCn1cnc2c(sc3nc4c(cc32)CSC(C)(C)C4)c1=O	0	0.1	10%	-1	-21
CCc1ccc(C(=O)NC(=S)Nc2ccccc2N2CCOCC2)cc1	?	5.9	.	.	.
COc1ccc(N(C(=O)c2ccn[nH]2)C(C(=O)NC(C)(C)C)c2ccc(F)cc2)cc1 (configuration not stated)	-1	3.1	-4%	-1	-20

Some of these compounds in order of molecular weight, rising.
SMILES	Mtb bLac sens	RecA intein inh	Mtb H37Rv	Arbovirus inh	YopH inh	others
CCOc1ccc(OCCn2ccnc2)cc1	-3	-0.3	1%	5	-22
Cc1cccc(N(CC(=O)NC2CCCC2)C(=O)c2c(C)noc2C)c1	4	1.3	-18%	-2	-5
CCOC(=O)C1=NN(C(C)=O)C2(CC(=O)N(c3ccc(C)c(C)c3)C2=O)C1 (configuration not stated)	-8	-7.5	-11%	-11	-13
CCN1CCN(C(c2cccs2)C(C)NC(=O)c2ccccc2F)CC1 (configuration not stated)	-8	2.0	-8%	6	-11
CN(CCc1ccccn1)C(=O)CCC1CCCN(C(=O)c2n[nH]c3c2CCCC3)C1 (configuration not stated)	-15	-2.2	-8%	5	.
c1ccc(CCn2c3ccccc3c3nnc(SCc4ccc5nonc5c4)nc32)cc1	1	8.7	11%	25	-3
Cc1ccc(OCCN2CCN(c3nc(NCc4ccco4)c4ccccc4n3)CC2)cc1	95	13	?	-36	-15

(next part)
SMILES	Mtb bLac sens	RecA intein inh	Mtb H37Rv	Arbovirus inh	YopH inh	others
Cc1ccc(C(=O)CSc2nn3c(=O)c(C(C)(C)C)nnc3s2)cc1	-4	2.7	-6%	1	4
Cc1ccc(S(=O)(=O)N(C)C)cc1NC(=O)C(C)OC(=O)/C=C/c1cccs1 (configuration not stated)	-10	-0.6	9%	.	.
Cc1cccc(-c2nc(Nc3ccc(N4CCOCC4)cc3)c3ccccc3n2)c1	1	5.3	67%	5	-10
CCOc1ccc(Br)cc1S(=O)(=O)Nc1ncn[nH]1	-2	-2.7	.	.	.
Cc1ccsc1C(=O)OCC(=O)N1CCc2ccccc2C1	-3	2.4	-2%	2	.
Cc1cc(C)c2nc(N(CCCN(C)C)C(=O)c3ccc(S(=O)(=O)N4CCCCCC4)cc3)sc2c1	81	4.8	.	.	.
COc1ccc(CCN2CC(O)=C(c3nc4ccccc4c(=O)[nH]3)C2=N)cc1OC	5	.	5%	0	-9
COCCOC(=O)N/C=C\c1nc2ccccc2c(=O)[nH]1	-11	-2.1	-5%	-16	-31
COc1ccc(C(=O)N/N=C/c2ccc(OC(=O)c3cccc4ccccc34)c([N+](=O)[O-])c2)cc1	12	-4.2	4%	2	-16
O=C1CC(N2CCN(Cc3ccc4c(c3)OCO4)CC2)C(=O)N1Cc1ccc(N2CCCC2=O)cc1 (configuration not stated)	0	-0.7	-6%	-2	-42	Arbovirus inh repeat=0
COc1ccc2c(c1)CCC1C2=NN(/C(C)=C\C(C)=O)C1c1ccc(F)cc1 (configuration not stated)	53	6.6	6%	-3	.
CCS(=O)(=O)N1CCCC(C(=O)NCCCN2CCCC2=O)C1 (configuration not stated)	-8	.	0%	0	-35
C=CCn1c(SCc2ccc(Cl)c(Cl)c2)nnc1C(CO)NC(=O)c1ccc(OC)cc1 (configuration not stated)	58	1.2	11%	-7	-14
Cc1nn(C)c(C)c1CNC(=O)Nc1ccc(Cl)cc1	-15	-0.9	2%	1	.
COc1ccc(CCNC(=O)C2CCN(S(=O)(=O)c3ccc(OC)c(OC)c3)CC2)cc1	5	0.1	-5%	10	2
Cc1cc(C)n(-c2nc(SCC(=O)O)c3c4c(sc3n2)COC(C)(C)C4)n1	86	3.0	9.7µM*	.	.
Cc1onc(-c2c(F)cccc2Cl)c1C(=O)NC1CCSC1=O (configuration not stated)	-2	2.3	5%	13	-1
N#Cc1sc2nc3c(c(-c4cccnc4)c2c1N)CCC3	0	-3.2	-10%	0	-21
COc1cc(C(=O)NC2CCN(Cc3nnnn3Cc3cccs3)CC2)cc(OC)c1OC	-26	-4.7	5%	2	-8
COc1ccc(-c2cc(C(=O)Nc3ccc(C)c(N)c3)c3ccccc3n2)cc1	69	-5.7	.	.	.
N#CC(c1ccccc1O)N1N=C(c2ccccc2)CC1c1ccccc1 (configuration not stated)	1	3.4	4%	.	.
CCOC(=O)C(Cc1ccccc1)c1ccnc2ncnn12 (configuration not stated)	-2	0.3	-5%	3	.
N#Cc1c(/N=C/N2CCCC2)oc(-c2ccccc2)c1-c1ccccc1	39	6.2	22%	1	-39
CCCC(=O)Nc1nc2ccc(NC(=O)c3c(F)c(F)c(OC)c(F)c3F)cc2s1	3	2.9	9%	-24	.
CC[C@H](C)[C@@H]1NC(=O)c2cc([N+](=O)[O-])cc(F)c2NCCCC[C@@H](C(N)=O)NC(=O)[C@H](CC(N)=O)NC1=O	-13	.	-12%	9	-25
CCCN(CC1CC1)S(=O)(=O)c1ccc(-n2cnnn2)c(OC)c1	6	2.6	0%	1	-18
Cn1c(=O)[nH]c(=O)c2c1nc(Br)n2CCCc1ccccc1	.	-0.1	.	10	13
CCNC(=O)COC(=O)CCNC(=O)c1cccc(C)c1	-1	-2.7	-4%	11	.
Cc1cc(Cn2nc(C(=O)NCC3CC3)cc2-c2ccccc2)on1	-1	-5.1	.	.	.
CCOC(=O)/C(C#N)=C1/C=CN(c2ccc(C)cc2)C=N1	3	-0.4	3%	4	-13
O=C(COc1ccc2c3c(c(=O)oc2c1)CCC3)Nc1ccc(CCO)cc1	8	-4.9	.	.	.
Cc1ccc(F)c(CNC(=O)C2CCC(=O)N(CCN3CCOCC3)C2)c1F (configuration not stated)	3	-1.0	.	.	.
COC(=O)CCC(=O)Nc1cccc(Br)c1	-4	-2.2	-2%	1	-2
CCCC1=NN(C(=O)C(=O)Nc2ccc(Br)cc2)C(O)(C(F)(F)F)C1 (configuration not stated)	16	9.0	29%	-3	.
CC1(C)CC(=O)C(Sc2ccccc2[N+](=O)[O-])=C(O)C1	7	-3.4	56%	-3	-10
Cc1cnc([N+](=O)[O-])n1CCOC(=O)NC(=O)c1ccc(F)cc1	3	3.1	2%	1	.
Cc1c(C(=O)N2CCC3(CC2)CC(=O)c2ccccc2O3)cccc1[N+](=O)[O-]	-6	0.3	.	.	.
Cc1cc(C)n2nc(SCC(=O)N/N=C/c3ccccc3F)nc2n1	5	0.4	-11%	2	-27
O=c1oc2ccccc2c(O)c1CN1CCCCC1	-3	-2.4	-1%	4	-29
Cn1c(C(=O)NCC2CCCO2)cc2c(=O)n(C)c3ccccc3c21 (configuration not stated)	-1	-5.4	-3%	-4	-25	Arbovirus inh repeat=-6
Nc1nc(C23CC4CC(CC(Cl)(C4)C2)C3)cs1	-4	0.6	-6%	.	.
COc1ccccc1C(=O)Nc1ccc(C(=O)N2CCCCC2)cc1	2	-17	.	.	.
CCNC(=S)N(Cc1ccco1)Cc1cc2cc(OCC)ccc2[nH]c1=O	-2	1.7	-11%	7	.
Fc1cccc(-c2cc3nc4c(c(NCc5ccco5)n3n2)CCCC4)c1	57	16	21%	5	-46
Cc1ccc(NC(=O)C2CCN(S(=O)(=O)c3ccc4c(c3)oc(=O)n4C)CC2)cc1	4	-5.1	.	.	.
CC(NS(=O)(=O)c1ccc(NC(=O)N2CCCCC2)cc1)c1ccccc1 (configuration not stated)	4	1.6	.	.	.
COC(=O)CN1C(=S)N(Cc2ccccc2)C(=O)C1CC(=O)Nc1ccc(Br)cc1 (configuration not stated)	47	8.8	-5%	10	0
CC(C)(C)c1cc2ncnc(N3CCCCC3)c2s1	89	0.4	.	.	.
CC1CCN(S(=O)(=O)c2ccc3c(c2)c(=O)c(C(=O)NC2CCCC2)cn3C)CC1	5	-3.4	10%	9	1
COc1ccc(N2C(=O)c3ccccc3NC2c2cccnc2)cc1 (configuration not stated)	-6	1.1	-11%	1	.
C=C(C)c1cccc(C(C)(C)NC(=O)NC2CCN(Cc3ccccc3)CC2)c1	0	4.4	.	.	.
O=C(N/N=C\c1cc(Br)ccc1O)c1ccc(S(=O)(=O)N2CCCCC2)cc1	8	13	8%	-26	-39
Cc1nc2ccccc2c(=O)n1NC(=O)Cc1ccc([N+](=O)[O-])cc1	6	-1.4	-1%	-3	.
CN(CC(=O)Nc1ccc(F)cc1)C(=O)CSc1nncs1	-6	0.4	.	.	.
CC(C)(C)C1CCC2(CC1)C(C#N)=C(SCC(=O)Nc1ccccc1)NC(=O)C2C#N (configuration not stated)	1	1.0	-4%	-23	-34
O=C(COC(=O)CSc1ccc(F)cc1)NNC(=O)c1ccc([N+](=O)[O-])cc1	4	-0.7	.	.	.
N/C(=N\OC(=O)c1ccc(OCC(F)(F)F)nc1)c1ccc(Cl)cc1	77	1.2	3%	.	.
CCOc1ccc(NC(=O)NC(=O)N(C)S(=O)(=O)c2ccc(C)cc2)cc1	2	-0.5	79%	-2	.
COC(=O)c1ccc(C(=O)OC)c(NC(=O)C(C)(C)C)c1	9	-0.6	3%	8	.

From PubChem BioAssay
